# Calb biofilm kill – mixture kills Candida albicans biofilm cells; 120,000 compounds, 0.02% hits; AID 1242; inhibition, % at 7.6 µM; C. albicans biofilm persisters + clotrimazole, fluorescence viability; primary screen in compound mixtures of four per well;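 active = inhibition above 30.3% in the primary screen of four-compound pools, then above 30% when the compound was retested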;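 note: compounds exposed to preformed 24 h biofilms for 48 h; the number belongs to the whole pool; some results filed as inactive read as strong as hits; inactives centre near 12; 0% = biofilm with clotrimazole alone and 100% = kill control; retested singly at about 60 µM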
#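 Test system: C. albicans biofilms. Buffer or medium: RPMI/MOPS medium, pH 7.0. Timing: 48 h compound exposure at 37 °C. Technique: Alamar Blue fluorescence. Evaluation: percent inhibition of biofilm viability.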
# Active calls of the source: *; & = joins results of further samples. Some of the compounds tested; rates above refer to the full screens.
SMILES,Calb biofilm kill
CC(=C/c1ccccc1)/C=N/N1CCN(Cc2ccc(C)cc2)CC1,33
COc1ccccc1N1CCN(S(=O)(=O)c2cc(C(F)(F)F)cc(C(F)(F)F)c2)CC1,13
COc1cccc(/C=N/NC(=O)c2cc3c(OC)c(OC)ccc3[nH]2)c1OC,16
O=C(COC(=O)CSc1cc(Cl)ccc1Cl)NCc1ccc2c(c1)OCO2,4
CSc1nsc2nc(=O)c(/C=C3\C(C)=Nc4ccccc43)c(N)n12,11
CCOc1ccc(-n2c(-c3ccc(Br)cc3)c[n+]3c2CCCCC3)cc1,11
COc1cc(OC)c(NS(=O)(=O)c2cc(C(=O)OC(C)C(=O)NC3CC3)c(Cl)cc2Cl)cc1Cl (stereo unspecified),17
Cn1c(SCC(=O)Nc2cccc(S(=O)(=O)N3CCOCC3)c2)nnc1-c1ccncc1,14
S=c1nc[nH]c2c1ncn2C1CCCO1 (stereo unspecified),19
CCC1=NN2C(=N)/C(=C/c3cc(C)n(Cc4ccccc4)c3C)C(=O)N=C2S1,11
CCC(C)NC(=O)Cn1c(COc2ccc(Cl)cc2Cl)nc2ccccc21 (stereo unspecified),14
Cc1ccc([N+](=O)[O-])cc1S(=O)(=O)Nc1ccc(C(=O)N(C)C)cc1,23
Cc1nc(C(=O)NNC(=O)c2ccc(C(F)(F)F)cc2)cs1,21
O=C(Nc1ccc2[nH]ccc2c1)c1cccs1,22
O=C1OCCN1CC(=O)N1CCc2c([nH]c3ccccc23)C1c1ccccn1 (stereo unspecified),25

# An excerpt of these results, with tabs.
Compound	Calb biofilm kill
CC(=C/c1ccccc1)/C=N/N1CCN(Cc2ccc(C)cc2)CC1	33
COc1ccccc1N1CCN(S(=O)(=O)c2cc(C(F)(F)F)cc(C(F)(F)F)c2)CC1	13
COc1cccc(/C=N/NC(=O)c2cc3c(OC)c(OC)ccc3[nH]2)c1OC	16
O=C(COC(=O)CSc1cc(Cl)ccc1Cl)NCc1ccc2c(c1)OCO2	4
CSc1nsc2nc(=O)c(/C=C3\C(C)=Nc4ccccc43)c(N)n12	11
CCOc1ccc(-n2c(-c3ccc(Br)cc3)c[n+]3c2CCCCC3)cc1	11
COc1cc(OC)c(NS(=O)(=O)c2cc(C(=O)OC(C)C(=O)NC3CC3)c(Cl)cc2Cl)cc1Cl (stereo unspecified)	17
Cn1c(SCC(=O)Nc2cccc(S(=O)(=O)N3CCOCC3)c2)nnc1-c1ccncc1	14
S=c1nc[nH]c2c1ncn2C1CCCO1 (stereo unspecified)	19
CCC1=NN2C(=N)/C(=C/c3cc(C)n(Cc4ccccc4)c3C)C(=O)N=C2S1	11
CCC(C)NC(=O)Cn1c(COc2ccc(Cl)cc2Cl)nc2ccccc21 (stereo unspecified)	14
Cc1ccc([N+](=O)[O-])cc1S(=O)(=O)Nc1ccc(C(=O)N(C)C)cc1	23
Cc1nc(C(=O)NNC(=O)c2ccc(C(F)(F)F)cc2)cs1	21
O=C(Nc1ccc2[nH]ccc2c1)c1cccs1	22
O=C1OCCN1CC(=O)N1CCc2c([nH]c3ccccc23)C1c1ccccn1 (stereo unspecified)	25

# (continued)
SMILES,Calb biofilm kill
COc1c(OC(C)=O)ccc(/C=C/c2ccc3cccc(OC)c3n2)c1[N+](=O)[O-],-8
Cc1cccc(CC(=O)Nc2c3c(nn2-c2cccc(Cl)c2)CS(=O)C3)c1 (stereo unspecified),18
Cc1cccc(NC(=O)c2csnn2)n1,-3
COCCn1c(-c2ccccc2)cnc1SCC(=O)Nc1cccc2ccccc12,-12
Cc1c(N2C(=O)C(=O)/C(=C(/O)c3ccc(Br)cc3)C2c2cccnc2)c(=O)n(-c2ccccc2)n1C (stereo unspecified),8
O=C(Nc1cccc(Cl)c1)OCc1cn(-c2ccccc2)nn1,9
O=C(Nc1ccc2c(c1)OCCO2)c1cccnc1Oc1ccc(Cl)cc1,9
O=C(CSc1nc(-c2ccccc2)cs1)NCCN1C(=O)CSC1=O,8
Cc1cc(C)c(C(N)=O)c(SCC(=O)c2cc(C)c(C)cc2C)n1,8
O=C(NC(=S)Nn1cnnc1)c1ccccc1Br,4
CCOc1ccc(C(C)=O)cc1CN1C(=O)C(=O)N(CC)C1=O,8
C=C(C)c1cccc(C(C)(C)NC(=O)Nc2ccc(Cl)cn2)c1,17
COc1cc(C(=O)NCc2nnc(SCC(=O)N3CCOCC3)o2)cc(OC)c1OC,18
COc1ccc(NC(=O)Nc2nnc(C(C)(C)C)s2)cc1,-1
O=C(CSc1nc2ccccc2c(=O)n1-c1ccc(F)cc1F)Nc1ccc(N2CCOCC2)cc1,7
Cn1nnnc1SCC(=O)Nc1cc(S(=O)(=O)N2CCCC2)ccc1Cl,14
Cc1ccc(C2OC(=O)c3ccccc32)cc1 (stereo unspecified),16
CCOC(=O)C1=C(C)NC(=O)NC1c1ccc(-c2ccc(F)cc2)o1 (stereo unspecified),9
CCOc1cc(/C=N/NC(=O)C(=O)NCC2CCCO2)ccc1OCC(=O)N1CCOCC1 (stereo unspecified),10
CC(OC(=O)C1CC(O)CN1S(=O)(=O)c1ccccc1[N+](=O)[O-])C(=O)N1CCCCC1 (stereo unspecified),13
CN(C)CCCNc1oc(/C=C/c2ccccc2)nc1C#N,27
O=C(NC(=S)Nc1ccccc1N1CCCC1)c1cccs1,13
CC(C)c1ccc(C(O)P(=O)(OCc2ccccc2)c2ccc(N(C)C)cc2)cc1 (stereo unspecified),4
CC(=O)c1cccc(NC(=O)C(OC(=O)c2cccs2)c2ccccc2)c1 (stereo unspecified),8
CCN(CC)S(=O)(=O)c1ccc(=O)[nH]c1,-8
Cc1ccc(C(=O)C(O)C(c2ccc(C)cc2)N2CCCCC2)cc1 (stereo unspecified),8
C/C(=N\NC(=O)Cc1c(C)[nH][nH]c1=O)c1ccc2ccccc2c1,6
CCNC(=S)NNC(=O)c1ccc(=O)n(Cc2ccccc2)c1,14
CCOc1ccc(S(=O)(=O)NCc2ccccc2)cc1C(N)=O,4
O=C(CNC(=O)c1ccccc1)NCC(=O)OCC(=O)c1ccc(F)cc1,7
C/C(=N\N=C(N)N)c1cc(Cl)ccc1Cl,10
COC(=O)c1ccc(C(NC(=O)c2cccnc2)NC(=O)c2cccnc2)cc1,8
O=C(CNS(=O)(=O)c1ccc(Cl)cc1)NNC(=O)c1cccnc1,14
O=C(CN(Cc1ccco1)C(=O)Cn1nnc(-c2cccs2)n1)NCC1CCCO1 (stereo unspecified),22
Cc1ccc(/C=N/NC(=O)c2cc(-c3cccnc3)nc3ccccc23)cc1,10
CCOC(=O)/C=C/C(=O)Nc1cccc([N+](=O)[O-])c1,11
COc1ccc(C2/C=C\CN(Cc3ccc(N(C)C)cc3)CC(=O)N2Cc2ccc(F)cc2)cc1 (stereo unspecified),17
CCOC(=O)NC1(C(F)(F)F)NC(=O)N(c2ccc(F)cc2)C1=O (stereo unspecified),7
COc1ccc2[nH]c(C(=O)Nc3ncc(C)cc3Br)cc2c1,14
CN(C(=O)Nc1ccc(Cl)c(Cl)c1)c1ccccc1C(=O)O,10
CC1(C)CC(=O)C(CC2=C(O)CC(C)(C)CC2=O)C(=O)C1,6
CCN(CC)C(=O)COc1ccc(/C=C(\C#N)S(=O)(=O)c2ccccc2)cc1OC,13
O=C(CC1C(=O)NCCN1Cc1cccc(Oc2ccccc2)c1)NCCCn1cccn1 (stereo unspecified),11
CCOP(=O)(OCC)c1nc(-c2ccc(OC)cc2)oc1N1CCOCC1,14
Cn1ccnc1SCC(=O)Nc1nc2c(F)c(F)c(F)cc2s1,-1
NS(=O)(=O)c1ccc(NC(=S)NC(=O)C2CCCCC2)cc1,12
C=CC(=O)N=c1sc2ccccc2n1-c1ccccc1,17
CCCN1CCC(N2CCCC(C(=O)O)C2)CC1 (stereo unspecified),20
Cc1cccc(NC(=O)C2CCCN2S(=O)(=O)c2ccc3c(c2)n(C)c(=O)c(=O)n3C)c1 (stereo unspecified),3
O=C(Cc1cccs1)NNC(=S)NC(=O)c1ccccc1,14
Cc1nn2c(-c3ccncc3)ccnc2c1Br,10
COc1ccccc1NC(=O)N(Cc1ccco1)Cc1cc2c(C)ccc(C)c2[nH]c1=O,10
Cc1ccc(C(=O)Nc2ccc(S(=O)(=O)N3CCN(C)CC3)cc2)cc1,11
CC(C)CCOc1ncnc2c1sc1nc3c(cc12)CSC(C)(C)C3,19
CC(=O)Nc1cccc(-n2nnc(SCC(=O)Nc3ccccc3)n2)c1,20
O=C1C(Oc2ccc(Cl)cc2)C(c2ccc3c(c2)OCO3)N1CC1CCCO1 (stereo unspecified),21
CC1=CCC(C(=O)O)C(C(=O)Nc2nc3ccc(S(C)(=O)=O)cc3s2)C1 (stereo unspecified),13
CN(C(=O)COc1ccc(Cl)cc1Cl)c1nnc(C23CC4CC(CC(C4)C2)C3)s1,-1
O=C(NNS(=O)(=O)c1ccccc1F)c1sccc1-n1cccc1,6
COc1ccccc1NC(=S)NCCc1ccc(F)cc1,9
# More records.
SMILES,Calb biofilm kill
O=C(O)c1ccc2c(=O)n3c(nc2c1)/C(=C/c1ccccc1C(F)(F)F)CCCC3,26
CCCCn1c(SCC(=O)N2CCCC2)nc2cc(S(N)(=O)=O)ccc21,13
COC(=O)CN1C(=S)N(c2ccc(Cl)cc2)C(=O)C1CC(=O)Nc1ccc(F)cc1 (stereo unspecified),8
O=C(CSc1nnc(-c2c[nH]c3ccccc23)o1)c1ccc(-c2ccccc2)cc1,1
CCn1nc(C)c(NC(=O)c2ccc(Cl)cc2)c1C,11
CCOC(=O)C1CCN(c2nc3c(C)cccn3c(=O)c2/C=C(\C#N)S(=O)(=O)c2ccccc2)CC1,5
CC(C)[C@@H]1NC(=O)c2cc([N+](=O)[O-])cc(I)c2NCCC[C@@H](C(N)=O)NC(=O)[C@H](CO)NC1=O,5
COc1cccc(C(=O)Nc2nc(SCc3ccc(Cl)cc3)n[nH]2)c1,15
O=C1CC(C(=O)NC2CCCCC2)C2(CCCCC2)O1 (stereo unspecified),8
CCCCNC(=S)Nc1ccccc1Cc1ccccc1,7
O=C(OCC(=O)N1N=C(c2ccc(Cl)cc2)CC1c1ccco1)c1ccco1 (stereo unspecified),7
c1ccc2c(c1)ccc1ncccc12,8
CS(=O)(=O)c1ccc(Sc2nc3ccccc3s2)c([N+](=O)[O-])c1,11
C/C(=N\N=C1\NC(=O)CC(C(=O)O)S1)c1ccc(F)cc1 (stereo unspecified),8
CC(=O)Nc1c(I)c(NC(C)=O)c(I)c(C(=O)O)c1I,-4&11
CCOC(=S)SCC(=O)Nc1nc(-c2ccc(Br)cc2)cs1,18
Cc1sc2c(c1C)C(=O)/C(=C\Nc1ccncc1)S(=O)(=O)N2C,11
O=C(CCC(=O)N1CCN(C(=O)c2ccco2)CC1)c1ccc(F)cc1,10
O=C(/C=C/c1ccco1)NC1=NCCS1,6
COc1ccc(C(CCN2CCCC2)c2c(OC)cc(OC)c3c(-c4ccccc4)cc(=O)oc23)cc1 (stereo unspecified),5
CCN(CC)CC(=O)Nc1scc2c1c(=O)oc1ccccc12,15
Cc1nn(C)c(Cl)c1C(=O)NC(C(=O)O)c1ccccc1 (stereo unspecified),-4
CCCCNc1c([N+](=O)[O-])cc(C(=O)O)cc1[N+](=O)[O-],18
COc1ccc(/C=N/NC(=O)Nc2cccc3nsnc23)cc1,-5
COc1ccc(CCNC(=O)Cn2c(=O)n(-c3ccc(C)c(F)c3)c(=O)c3sccc32)cc1OC,7
C=C(C)CSc1nnc([C@@H]2CCCN2)o1,15
CC(C)=CCN1CCN(Cc2cccc3c2OCO3)CC1CCO (stereo unspecified),21
O=C(Cn1c(C(F)(F)F)nc2ccccc21)N/N=C/c1ccco1,6
CC1CN(C(=O)/C=C/c2ccc([N+](=O)[O-])s2)CC(C)O1 (stereo unspecified),18
N#CCCN(Cc1cccnc1)C(=S)Nc1ccc(OC(F)F)cc1,8
COc1ccccc1NC(=O)COC(=O)c1ccc2c(c1)nc(C)n2-c1ccccc1,9
CN(C)c1ccc(/C=C/C=N/Nc2nc(N3CCOCC3)nc(N3CCOCC3)n2)cc1,15
c1ccc(C2c3[nH]c4ccccc4c3CCN2Cc2cccn2-c2cccnc2)nc1 (stereo unspecified),14
CCOC(=O)c1nc(Nc2ccc(Nc3ccccc3)cc2)c2ccccc2n1,12
O=C(Nc1ccc2ccccc2c1)NC1CCS(=O)(=O)C1 (stereo unspecified),10
CCOC(=O)CCNC(=O)N1CCCC(CCC(=O)N(C)CCc2ccccn2)C1 (stereo unspecified),29
Cc1cccc(NC(=O)C(CC(C)C)NC(=O)C2CCC(C)CC2)n1 (stereo unspecified),1
CSc1nn2cc(CCN3CCOCC3)c(-c3ccc(F)cc3)nc2c1C#N,11
COc1cc(NC(=O)CSc2nc(C)c(C)c(C)n2)c(C)cc1[N+](=O)[O-],13
O=C(CCl)N(CCCNC(=O)C(F)(F)F)c1ccc([N+](=O)[O-])cc1,27
O=C(NNC(=S)Nc1cccc(C(F)(F)F)c1)c1ccccc1Cl,11
Cc1nc(NC(=O)C(Cl)Cl)sc1C(=O)N(C)C,-15
Cc1cc2ncn(CS(C)(=O)=O)c2cc1C,-4
Cc1ccc(CN2CCN(/N=C/c3ccc(C(F)(F)F)cc3)CC2)c(C)c1,19
COc1ccc(NCC(O)COc2ccc(C(C)(C)C)cc2)cc1 (stereo unspecified),11
O=C(NCCCN1CCOCC1)C(=O)NCc1ccco1,9
Cc1cc([N+](=O)[O-])nn1CC(=O)NCc1nc2ccccc2[nH]1,5
O=C(Cn1nc(-c2nn(CC(=O)c3ccccc3)c3[n+]2CCCCC3)[n+]2c1CCCCC2)c1ccccc1,19
Cc1ccc(NC(=O)c2sc(=S)n(-c3cc(C)ccc3F)c2N)cc1,13
CC1C/C(=N/Nc2ccc([N+](=O)[O-])cc2[N+](=O)[O-])CC(C)(C)C1 (stereo unspecified),13

# Bioassay records deposited in PubChem by PCMD.
